Screening results: PubChem, GNF / Scripps  Winzeler lab
liver stage: exo-erythrocytic parasite development inhibition – imaging, Malaria Box, P. yoelii, HepG2-A16-CD81EGFP, dose response (AID 602156) | calls after a first round at 10 µM; hits with a dose series show IC50 in µM | P. yoelii liver stage in HepG2-A16-CD81EGFP, imaging; first-round cut-off not given here | 4.8% of 5,700 active; in the data active = a potency from the dose series;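 also: infected cells exposed to compound for 48 hours before fixation; stained parasite area by imaging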
An asterisk follows results filed as active; i = inactive.

SMILES	liver stage
CCN(CC)S(=O)(=O)c1cc(S(=O)(=O)c2ccc(Cl)c(S(=O)(=O)N(CC)CC)c2)ccc1Cl	i
CCOC(=O)c1sc2nc(N)c(C#N)c(-c3cccs3)c2c1N	i
COc1ccc2[nH]c3c(c2c1)CCNC3c1ccc(OC)c(CSc2nnc(-c3ccccc3)o2)c1 (stereo not given)	i
COc1cc(Br)c(CCNC(=O)Cc2cc(OC)c(OC)cc2Br)cc1OC	i
COc1ccc(-c2csc3ncnc(Cl)c23)cc1OC	i
CCN(CC)c1ccc(/C=C(/C#N)c2nc3ccccc3[nH]2)o1	i
CCC(=O)N=c1sc2cc([N+](=O)[O-])ccc2n1CCOC	i
Cc1cc(Nc2ccc(Cl)cc2)n2nnnc2n1	i
O=C(Cc1ccc(F)cc1Cl)N1CCN(c2cccc3c2C(=O)N(Cc2ccccn2)C3=O)CC1	i
CCCCN1C(=O)/C(=C/N(C(=O)CC)c2ccccc2)SC1=S	i
CCOC(=O)c1cccc(N2C(N)=NC(N)=NC2(C)C)c1	i
COc1ccccc1C1SCCN1C(=O)Nc1ccc(Cl)c(Cl)c1 (stereo not given)	i
COc1ccc(CN2CCOc3ccc(C(C)(O)CN(C)C)cc3C2)cc1C (stereo not given)	0.0675µM*
COC(=O)[C@@H]1C[C@H](NC(=O)c2[nH]c3ccc(Cl)cc3c2-c2ccccc2)CN1Cc1cc(OC)cc(OC)c1	i
CCCn1c(SCC(=O)N2c3ccccc3CC2C)nc2c1c(=O)n(C)c(=O)n2C (stereo not given)	i
Cc1ccnc(NC(c2cccc(Cl)c2Cl)c2ccc3cccnc3c2O)c1 (stereo not given)	i
CCCC(=O)N1CCN(C(=O)c2nc(-c3ccccc3)nc(CCC)c2C(=O)OCC)CC1C (stereo not given)	i
CCn1c(SCCCCNC(=O)c2cc([N+](=O)[O-])cc([N+](=O)[O-])c2)nc(-c2ccc(C)cc2)c1-c1ccc(C)cc1	i
O=c1[nH]c(N2CCCC2)nc2c1CCN(Cc1coc3ccccc3c1=O)C2	i
COc1nccnc1NS(=O)(=O)c1ccc(NC(=O)c2cc3ccccc3oc2=O)cc1	i
COc1ccc(C2CC(c3cccs3)=NN2C(=O)CSc2nnc(CNC(=O)c3cccs3)n2-c2cc(C)ccc2C)cc1 (stereo not given)	i
CCOC(=O)C(=O)N1c2ccc(C)cc2C(C)(c2ccccc2)CC1(C)C (stereo not given)	i
CC(=O)c1ccc2c3c(onc13)-c1ccccc1C2=O	i
O=C(CCCOc1ccc(Cl)cc1Cl)NCCCn1ccnc1	i
COc1ccccc1N1CCN(c2c3c(nc4nncn24)CCC3)CC1	i
COc1ccc(CN2CCc3nnc(CCc4ccccc4)n3CC2)c(F)c1	i
Cc1cccc(C)c1NC(=O)N1CCN(C(=O)c2nc(-c3ccccc3)nc(C)c2C(=O)OC(C)C)CC1C (stereo not given)	i
Cc1ccc(N(C(=O)c2snc(C(=O)NC3CCCCC3)c2N)C(C(=O)NCCc2ccccc2)c2ccc(O)cc2)c(C)c1 (stereo not given)	i
COc1ccc(/C=C2\SC(=S)N(CC(=O)NNC(=O)c3ccncc3)C2=O)cc1	i
CC[n+]1c(C=C2Sc3ccccc3N2C)ccc2ccc(C)cc21	i
Cc1cc(Oc2ncnc(N(C)CC(=O)OC(C)(C)C)c2[N+](=O)[O-])c2nncn2n1	i
O=[N+]([O-])c1ccc(NCCNc2nc(N3CCCC3)nc3ccccc23)cc1	i
C#CCN1c2ccccc2Sc2cccnc21	i
Cc1ccc(CNC(=O)c2cc(=O)[nH]c3ccc(S(=O)(=O)N4CCOCC4)cc23)cc1	i
N=c1n(CCN2CCCCC2)c2ccccc2n1CC(O)c1ccc(Cl)c(Cl)c1 (stereo not given)	i
COc1cc(NC(C)CCCN(Cc2ccccc2OC)C(=O)c2ccc(C)c([N+](=O)[O-])c2)c2ncccc2c1 (stereo not given)	i
CC[n+]1ccc(C=C2C=Cc3ccccc3N2C)cc1	i
Fc1ccc(Nc2nc(OC(C(F)(F)F)C(F)(F)F)nc(OC(C(F)(F)F)C(F)(F)F)n2)cc1	i
CCN1C(=Cc2sc3ccccc3[n+]2CC)Sc2ccccc21	i
CCOc1cc([N+](=O)[O-])cc(C=Nc2cccc(NC(=O)c3ccco3)c2)c1O	i
c1ccc(CC[n+]2cc(-c3ccccc3)n3c2CCC3)cc1	i
Cc1ccc(N(C)C(=O)CCNS(=O)(=O)c2cc(Br)cnc2N)cc1	i
Cc1ccc2[nH]c3c(NCCCN(C)C)ncnc3c2c1	i
CCOC(=O)c1c(CNc2ccncc2)n(C)c2cc(Br)c(OC(C)=O)cc12	i
Oc1c(C(Nc2ccccn2)c2ccc(Cl)cc2Cl)ccc2cccnc12 (stereo not given)	i
CCc1ccc(NC(=O)c2sc3nc(N)c(C#N)c(-c4ccc(OC)c(OC)c4)c3c2N)cc1	i
CC1CCCCN1CCCNCc1ccc(OCc2ccccc2)cc1 (stereo not given)	i
COc1cccc(NC(=O)c2ccc(NCCCN3CCC(C)CC3)c([N+](=O)[O-])c2)c1	i
Cc1ccn2c(NC(C)(C)CC(C)(C)C)c(-c3ccccc3OC(=O)c3ccccc3F)nc2c1	i
Cn1c(=O)n(Cc2ccccc2)c(=O)c2c1nc(SCC(=O)Nc1ccccc1)n2Cc1ccccc1	i

No new results follow: an excerpt of the list.
SMILES	liver stage
Cc1ccc(N(C(=O)c2snc(C(=O)NC3CCCCC3)c2N)C(C(=O)NCCc2ccccc2)c2ccc(O)cc2)c(C)c1 (stereo not given)	i
COc1ccc(/C=C2\SC(=S)N(CC(=O)NNC(=O)c3ccncc3)C2=O)cc1	i
CC[n+]1c(C=C2Sc3ccccc3N2C)ccc2ccc(C)cc21	i
Cc1cc(Oc2ncnc(N(C)CC(=O)OC(C)(C)C)c2[N+](=O)[O-])c2nncn2n1	i
O=[N+]([O-])c1ccc(NCCNc2nc(N3CCCC3)nc3ccccc23)cc1	i
C#CCN1c2ccccc2Sc2cccnc21	i
Cc1ccc(CNC(=O)c2cc(=O)[nH]c3ccc(S(=O)(=O)N4CCOCC4)cc23)cc1	i
N=c1n(CCN2CCCCC2)c2ccccc2n1CC(O)c1ccc(Cl)c(Cl)c1 (stereo not given)	i
COc1cc(NC(C)CCCN(Cc2ccccc2OC)C(=O)c2ccc(C)c([N+](=O)[O-])c2)c2ncccc2c1 (stereo not given)	i
CC[n+]1ccc(C=C2C=Cc3ccccc3N2C)cc1	i
Fc1ccc(Nc2nc(OC(C(F)(F)F)C(F)(F)F)nc(OC(C(F)(F)F)C(F)(F)F)n2)cc1	i
CCN1C(=Cc2sc3ccccc3[n+]2CC)Sc2ccccc21	i
CCOc1cc([N+](=O)[O-])cc(C=Nc2cccc(NC(=O)c3ccco3)c2)c1O	i
c1ccc(CC[n+]2cc(-c3ccccc3)n3c2CCC3)cc1	i
Cc1ccc(N(C)C(=O)CCNS(=O)(=O)c2cc(Br)cnc2N)cc1	i
Cc1ccc2[nH]c3c(NCCCN(C)C)ncnc3c2c1	i
CCOC(=O)c1c(CNc2ccncc2)n(C)c2cc(Br)c(OC(C)=O)cc12	i
Oc1c(C(Nc2ccccn2)c2ccc(Cl)cc2Cl)ccc2cccnc12 (stereo not given)	i
CCc1ccc(NC(=O)c2sc3nc(N)c(C#N)c(-c4ccc(OC)c(OC)c4)c3c2N)cc1	i
CC1CCCCN1CCCNCc1ccc(OCc2ccccc2)cc1 (stereo not given)	i
COc1cccc(NC(=O)c2ccc(NCCCN3CCC(C)CC3)c([N+](=O)[O-])c2)c1	i
Cc1ccn2c(NC(C)(C)CC(C)(C)C)c(-c3ccccc3OC(=O)c3ccccc3F)nc2c1	i
Cn1c(=O)n(Cc2ccccc2)c(=O)c2c1nc(SCC(=O)Nc1ccccc1)n2Cc1ccccc1	i

These rows are one share of the data. The share of hits here may be higher or lower than overall.
